BJeLR viability – compounds reducing viability of BJeLR cells; BJeLR fibroblasts viability, CellTiterGlo ATP luminescence, 48 h; HRASV12, hTERT and SV40 LT/ST transformed; viability loss activity score, % (concentration not given with the values); AID 2275; actives 0.64% (n = 30,000); in the data active = viability loss activity score above about 50%; about a fifth of its hits are not listed in these tables;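 note: higher score means fewer live cells and less ATP luminescence; stock transfer was 50 or 100 nL into about 30 µL; 0% = vehicle wells and 100% = a reference killing control; one replicate is shown; the record names a cut of 85%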
A1 inhib – inhibitors of A1; caspase activation, % (test concentration not listed); MEF A1-2A-BIM cells, caspase-Glo luminescence, 3 h; percent of clofoctol signal, DMSO as zero; AID 2241; actives 0.51% (n = 21,000);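 active = most replicate scores above 10, or exactly half above 10 with mean activity above 10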;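 note: effector caspase 3 and 7 activity cleaving a DEVD luciferin substrate; 50 nL library stock added to about 30 µL; numbers are from one replicate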
Starred values were filed as active, the others as inactive; x = not tested or not shown.

SMILES	BJeLR viability	A1 inhib
C[C@@H]1CN([C@@H](C)CO)C(=O)c2cc(NC(=O)c3ccncc3)ccc2O[C@@H]1CN(C)C(=O)Nc1cccc2ccccc12	-5.8	0.2
Oc1ccc(Br)cc1C1Nc2ccccc2S1 (stereo unspecified)	4.7	-5.3
CC1CCc2nc(NCCO)nc(C(F)(F)F)c2C1 (stereo unspecified)	3.7	x
Cc1ccc(NC2=CC(=O)NC2)cc1	-4.3	1.3
Cc1ccc(NC(=O)c2oc3ccc(S(=O)(=O)N4CCCC4)cc3c2C)cc1C	22.9	-0.5
CSCC[C@H](NC(=O)[C@H](Cc1ccccc1)NC[C@@H](NC[C@@H](N)CS)C(C)C)C(=O)O	-2.4	-0.4
CC1=CC=C(C=O)C(C)(C)C1OC(=O)/C=C(\C)CO (stereo unspecified)	0.0	0.3
COC(=O)c1sc(SCCOC(=O)c2ccccc2Cl)c2c1CC(C)(C)CC2=O	-4.6	-0.2
COc1ccc(NC(=O)Nc2cccc3c2O[C@@H](CN(C)Cc2ccccc2)[C@@H](C)CN([C@H](C)CO)C3=O)cc1	-1.8	x
Cc1ccc(CNC(=O)COc2ccc3c(c2)C(=O)CC2(CCCCC2)O3)cc1	2.4	x
N#CCSc1nc2ccccc2c(=O)n1CCn1c(SCC#N)nc2ccccc2c1=O	1.3	0.4
Oc1ccccc1N=CC=Nc1ccccc1O	-7.8	x
CNC[C@@H]1Oc2c(NC(=O)C3CCOCC3)cccc2C(=O)N([C@H](C)CO)C[C@H]1C	0.9	x
CC(=O)N/C(=N/c1nc(C)cc(C)n1)Nc1cc(C)cc(C)c1	0.4	0.7
Cc1ccc(N2C(=O)C3C4C=CC(CNC(=S)Nc5ccc(Br)cc5)(O4)C3C2=O)cc1 (stereo unspecified)	1.9	x
CC(C)OC(=O)CSc1nc2ccccc2s1	4.2	-3.1
C[C@H]1CN([C@@H](C)CO)C(=O)c2cccc(NC(=O)Nc3cccc4ccccc34)c2O[C@H]1CN(C)Cc1ccc(-c2ccccc2)cc1	-1.0	x
CN(C)C(=O)/C(=C\c1ccccc1)NC(=O)c1ccccc1	2.0	1.3
O=C(Oc1ccc(C2=NCCS2)cc1)c1ccccc1Cl	4.0	-2.5
O=C(NCCC(c1ccccc1)c1ccccc1)c1cc2ccccc2c(=O)o1	-3.7	0.3
COc1ccc(NC(=O)Nc2ccc3c(c2)C(=O)N([C@H](C)CO)C[C@@H](C)[C@@H](CN(C)CC2CCCCC2)O3)cc1	3.3	-0.2
CC(C)NC(=O)N(C)C[C@H]1Oc2ccc(NC(=O)NC3CCCCC3)cc2C(=O)N([C@@H](C)CO)C[C@H]1C	4.8	0.2
C[C@@H]1CN([C@@H](C)CO)C(=O)c2cc(NC(=O)Cc3cn(C)c4ccccc34)ccc2O[C@H]1CN(C)Cc1ccc(C(=O)Nc2ccccc2N)cc1	6.3	x
Fc1ccc(NC(=S)N2CCc3ccccc32)cc1	3.5	x
Cc1ccc(S(=O)(=O)N(C)C[C@H]2Oc3ccc(NC(=O)Nc4ccccc4)cc3C(=O)N([C@H](C)CO)C[C@H]2C)cc1	1.7	-0.5
More results
SMILES	BJeLR viability	A1 inhib
Cc1ccc(-c2nc(Nc3ccc(C)c(Cl)c3)sc2CC(=O)O)cc1	3.1	x
Cc1noc(C)c1NC(=O)Nc1ccc2c(c1)C(=O)N([C@H](C)CO)C[C@H](C)[C@@H](CN(C)Cc1ccc(C(=O)Nc3ccccc3N)cc1)O2	-1.1	x
CC1CC(C)(C)NC(=S)N1CC(=O)N(C)Cc1ccccc1 (stereo unspecified)	0.6	x
CC1CC(C)CN(CCCNC(=O)c2ccc3c(SCC(=O)O)c4c(nc3c2)CCC4)C1 (stereo unspecified)	2.5	0.2
C[C@@H]1CN([C@H](C)CO)C(=O)c2cc(NC(=O)CCN3CCOCC3)ccc2O[C@H]1CN(C)CC1CCCCC1	-0.3	0.2
CCc1ccc(NC(=O)N(CCN(C)C)C(C)c2cccnc2)cc1 (stereo unspecified)	7.1	0.9
C[C@H]1CN([C@@H](C)CO)C(=O)c2cccc(NC(=O)c3ccc(-c4nccs4)cc3)c2O[C@H]1CN(C)C(=O)NC1CCCCC1	-0.3	x
O=C(Nc1ccccc1)N1CCN(c2ncccn2)CC1	-0.2	-0.2
CN(C)c1c2c(c(C#N)c3nc4ccccc4n13)CCC2	-1.0	x
C/C=C/C(O)C(C)CC(C)C(OC(=O)CCC(=O)O)C(C)/C=C/C=C/C=C(\C)C(=O)O (stereo unspecified)	-8.2	-0.5
C[C@@H]1CN([C@@H](C)CO)C(=O)c2cc(NC(=O)Nc3ccc(F)cc3)ccc2O[C@H]1CN(C)C(=O)Nc1cccc2ccccc12	-2.3	0.3
CNC[C@H]1Oc2c(NC(=O)Nc3c(C)noc3C)cccc2C(=O)N([C@H](C)CO)C[C@@H]1C	0.7	x
C[C@@H]1CN([C@@H](C)CO)C(=O)c2cc(NS(=O)(=O)c3cn(C)cn3)ccc2O[C@H]1CN(C)Cc1ccc(C(=O)Nc2ccccc2N)cc1	-9.6	x
C[C@@H]1O[C@@H](Oc2cc(O)c3c(=O)c(O[C@@H]4O[C@@H](C)[C@H](O)[C@@H](O[C@@H]5OC[C@@H](O)[C@H](O)[C@H]5O)[C@H]4O[C@@H]4O[C@H](CO)[C@@H](O)[C@H](O)[C@H]4O)c(-c4ccc(O)c(O)c4)oc3c2)[C@H](O)[C@H](O)[C@H]1O	6.6	-0.3
C=CCNC(=O)C1CC(c2ccccc2F)=NO1 (stereo unspecified)	0.7	x
COc1ccc(S(=O)(=O)Nc2ccc3c(c2)C(=O)N([C@H](C)CO)C[C@H](C)[C@@H](CN(C)S(=O)(=O)c2ccc(C)cc2)O3)cc1	-0.5	0.1
C[C@H]1CN([C@@H](C)CO)C(=O)c2cc(NC(=O)NC3CCCCC3)ccc2O[C@H]1CN(C)C(=O)Nc1ccc(F)cc1	-0.7	0.7
COC(=O)c1ccc(Cn2nc(C(F)(F)F)cc2C)cc1	-2.3	x
CC(C)NC(=O)Nc1ccc2c(c1)C(=O)N([C@H](C)CO)C[C@H](C)[C@@H](CN(C)S(=O)(=O)c1cccs1)O2	-1.4	0.2
CC1=C(C#N)C(C(F)(F)F)(C(F)(F)F)N=C(c2ccncc2)N1	7.3	-0.1
COc1ccc(CN(C)C[C@@H]2Oc3c(NS(=O)(=O)c4c(C)noc4C)cccc3C(=O)N([C@@H](C)CO)C[C@@H]2C)cc1	0.5	x
CCC/C=C/C=C/C1CC(O)C(O)C(O)C1CO (stereo unspecified)	-2.7	0.1
C[C@@H]1CN([C@@H](C)CO)C(=O)c2cccc(NC(=O)Nc3ccc(F)cc3)c2O[C@H]1CN(C)Cc1ccccc1	4.3	x
COc1cc(/C=C/c2cc(O)cc(O[C@@H]3O[C@H](CO)[C@@H](O)[C@H](O)[C@H]3O)c2)ccc1O[C@@H]1O[C@H](CO)[C@@H](O)[C@H](O)[C@H]1O	3.6	0.5
O=C(Cc1ccccc1)NCc1ccncc1	3.2	1.2
Going on with the list.
SMILES	BJeLR viability	A1 inhib
CCS(=O)(=O)n1nc(-c2ccco2)nc1SC	4.1	x
COc1cc(OC)c2nc(C)c3c(c2c1)SCC3	0.7	1.5
C[C@H]1CN([C@@H](C)CO)C(=O)c2cc(N(C)C)ccc2O[C@@H]1CN(C)C(=O)NC1CCCCC1	-0.4	-0.2
Cc1cccc(N(C)S(=O)(=O)c2ccc3c(c2)CCN3C(=O)C2CC2)c1	5.7	x
COc1ccc(C2C3=C(CC(C)(C)CC3=O)Nc3[nH]c(=O)[nH]c(=O)c32)cc1 (stereo unspecified)	-2.5	-0.7
Cc1ccc(C(O)(C(=O)NN2CCOCC2)c2ccc(C)cc2)cc1	-9.2	0.1
Cc1c(-c2cccc(NC(=O)C(C)(C)Oc3ccc(Cl)cc3)c2)nc2ncccn12	-3.0	x
C[C@@H]1CN([C@H](C)CO)C(=O)c2cc(NC(=O)Nc3ccc(C(F)(F)F)cc3)ccc2O[C@@H]1CN(C)Cc1ccc2c(c1)OCO2	5.4	-0.6
C=CCN1C(=O)/C(=C/c2cn(C(C)CC)c3ccccc23)C(=O)NC1=S (stereo unspecified)	-1.4	-0.6
C[C@H]1CN([C@@H](C)CO)C(=O)c2cc(NC(=O)Nc3ccc(F)cc3)ccc2O[C@@H]1CN(C)C(=O)NC1CCCCC1	-1.1	0.0
Cc1cccc(Oc2coc3cc(OC(=O)c4cccnc4)ccc3c2=O)c1	-1.0	x
Cc1ccc(OCCN2CCN(c3ncnc4scc(-c5ccccc5)c34)CC2)cc1	-3.5	0.1
Cc1noc(C)c1S(=O)(=O)Nc1ccc2c(c1)C(=O)N([C@H](C)CO)C[C@@H](C)[C@H](CN(C)C(=O)Nc1ccccc1)O2	0.4	0.3
COc1ccc(S(=O)(=O)N(C)C[C@H]2Oc3ccc(NS(=O)(=O)c4ccccc4)cc3C(=O)N([C@H](C)CO)C[C@@H]2C)cc1	0.3	-0.6
CCOC(=O)NN1C(=O)c2ccccc2NC1c1ccc(OC)cc1 (stereo unspecified)	4.7	x
COC(=O)c1sc(SC)c(-c2ccon2)c1C	-2.0	-1.0
C[C@H](CO)N1C[C@H](C)[C@@H](CN(C)C(=O)Nc2cccc3ccccc23)Oc2c(NS(C)(=O)=O)cccc2C1=O	1.0	x
CCC1NC(=O)c2cc(S(N)(=O)=O)c(Cl)cc2N1 (stereo unspecified)	-1.0	-0.3
COc1ccc(NC(=O)Nc2cccc3c2O[C@@H](CN(C)C(=O)Nc2ccc(C(F)(F)F)cc2)[C@H](C)CN([C@@H](C)CO)C3=O)cc1	0.7	x
O=C1CSC(c2ccccc2)N1Cc1ccccc1 (stereo unspecified)	-7.5	0.1
Oc1ccc(-c2nc(-c3ccc(F)cc3)c(-c3ccncc3)[nH]2)cc1	2.7	0.8
Cc1cc(C(=O)Nc2cccc3c2O[C@H](CN(C)Cc2ccncc2)[C@@H](C)CN([C@H](C)CO)C3=O)n(C)n1	-2.2	x
CNC[C@@H]1Oc2c(NC(=O)NC(C)C)cccc2C(=O)N([C@H](C)CO)C[C@@H]1C	-3.6	x
CNC[C@@H]1Oc2c(NS(=O)(=O)c3ccc(Cl)cc3)cccc2C(=O)N([C@H](C)CO)C[C@H]1C	3.6	x
C[C@H](CO)N1C[C@H](C)[C@H](CN(C)S(C)(=O)=O)Oc2ccc(NC(=O)NC3CCCCC3)cc2C1=O	-5.1	0.1

4 of the entries above in order of the A1 inhib value, high to low:
canonical_smiles	A1 inhib
C[C@@H]1CN([C@H](C)CO)C(=O)c2cc(NC(=O)CCN3CCOCC3)ccc2O[C@H]1CN(C)CC1CCCCC1	0.2
COc1ccc(S(=O)(=O)Nc2ccc3c(c2)C(=O)N([C@H](C)CO)C[C@H](C)[C@@H](CN(C)S(=O)(=O)c2ccc(C)cc2)O3)cc1	0.1
CC1=C(C#N)C(C(F)(F)F)(C(F)(F)F)N=C(c2ccncc2)N1	-0.1
C/C=C/C(O)C(C)CC(C)C(OC(=O)CCC(=O)O)C(C)/C=C/C=C/C=C(\C)C(=O)O (stereo unspecified)	-0.5

5 records picked at random from the list so far, as already listed:
SMILES	BJeLR viability	A1 inhib
CC(C)OC(=O)CSc1nc2ccccc2s1	4.2	-3.1
Cc1ccc(C(O)(C(=O)NN2CCOCC2)c2ccc(C)cc2)cc1	-9.2	0.1
C[C@H](CO)N1C[C@H](C)[C@H](CN(C)S(C)(=O)=O)Oc2ccc(NC(=O)NC3CCCCC3)cc2C1=O	-5.1	0.1
CC1CC(C)(C)NC(=S)N1CC(=O)N(C)Cc1ccccc1 (stereo unspecified)	0.6	x
N#CCSc1nc2ccccc2c(=O)n1CCn1c(SCC#N)nc2ccccc2c1=O	1.3	0.4

Carrying on.
SMILES	BJeLR viability	A1 inhib
CC(C)(C)c1ccc(Cn2c(=N)n(CC(=O)O)c3ccccc32)cc1	-3.5	-0.5
C[C@H]1CN([C@@H](C)CO)C(=O)c2cccc(NC(=O)c3ccc(-c4nccs4)cc3)c2O[C@@H]1CN(C)Cc1ccc(C(F)(F)F)cc1	0.3	x
COC(CNC(=O)c1ccc2c(Cl)c3c(nc2c1)CCCC3)OC	-6.9	x
COc1cc(-c2cc(OC)c(C)cc2OC)c(OC)cc1C	-7.9	2.5
COc1ccc(C2C(C(=O)NCC3CCCO3)c3ccccc3C(=O)N2C)cc1 (stereo unspecified)	6.6	x
CCCCN(C1=NC2CS(=O)(=O)CC2S1)c1ccc(Cl)cc1 (stereo unspecified)	-6.0	-0.3
CC[n+]1c(C)csc1Nc1ccc(N2CC(C)OC(C)C2)cc1 (stereo unspecified)	17.5	-0.3
COC(=O)C1CCN(C(=O)Cc2ccc(C)cc2)CC1	-2.5	0.0
Cc1nn(Cc2cccc(C(=O)NC(=O)Nc3ccc(Cl)cc3)c2)c(C)c1Br	4.2	8.7
O=C(O)c1cc(F)cc(C(F)(F)F)c1	-3.3	x
Cc1nnn(C23CC4CC(CC(C(=O)N5CCCCCC5)(C4)C2)C3)n1	4.4	x
C[C@@H]1CN([C@@H](C)CO)C(=O)c2cc(NS(=O)(=O)c3ccc(F)cc3)ccc2O[C@H]1CN(C)C(=O)Nc1cccc2ccccc12	-1.0	0.7
Cc1noc(C)c1S(=O)(=O)Nc1cccc2c1O[C@@H](CN(C)Cc1ccc(C(=O)O)cc1)[C@@H](C)CN([C@H](C)CO)C2=O	-1.1	x
N/C(CSc1nc2ccccc2s1)=N\O	6.5	-0.6
C[C@@H]1CN([C@H](C)CO)C(=O)c2cccc(NC(=O)c3ccc(-c4nccs4)cc3)c2O[C@H]1CN(C)C(=O)Nc1cccc2ccccc12	-9.1	x
C[C@H](CO)N1C[C@H](C)[C@@H](CN(C)S(=O)(=O)c2cn(C)cn2)Oc2c(cccc2N(C)C)C1=O	0.3	x

Bioassay records (PubChem BioAssay)

These rows are one share of the data. The share of hits here may be higher or lower than overall.
